# GALR2 agonist: GALR2 (human) receptor agonism; hit rate 0.48% among 140,000; activation, %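 (tested at 5 µM)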; O43603; AID 803; GALR2-expressing cells, agonist activation read-out;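 active = above mean plus 3 SD of all compounds, about 5% in these data, not always enough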;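 also: 0% = vehicle buffer wells and 100% = reference agonist at full effect; tested in CHO reporter cells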
# Target sequence (O43603 whole entry, looked up): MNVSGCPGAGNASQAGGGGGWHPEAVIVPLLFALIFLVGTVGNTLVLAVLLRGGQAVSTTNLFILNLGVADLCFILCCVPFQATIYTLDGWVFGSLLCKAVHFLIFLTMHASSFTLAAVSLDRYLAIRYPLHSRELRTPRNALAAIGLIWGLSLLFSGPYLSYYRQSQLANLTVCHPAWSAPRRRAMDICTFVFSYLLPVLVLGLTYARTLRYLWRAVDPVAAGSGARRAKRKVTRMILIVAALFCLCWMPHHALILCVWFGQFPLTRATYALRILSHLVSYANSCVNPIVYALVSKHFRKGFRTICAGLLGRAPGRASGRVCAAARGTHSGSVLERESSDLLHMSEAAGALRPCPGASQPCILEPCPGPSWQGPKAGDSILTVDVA
# HSV replic up: HSV replication enhancement; HSV replication augmentation in cells, fold increase; maximum fold increase; hit rate 0.005% among 220,000;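 active = peak rise of 1.5-fold or more in the series; inconclusive = self-fluorescent or not available for retest; tested in PC3 cells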;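 also: first round at 10 µM; read as green reporter fluorescence; hits show the peak of a series up to 25 µM; 1 = signal of infected wells without compound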
# Insulin prom inh: TRM-6 insulin promoter activity inhibition; TRM-6 cells (human fetal islet line), insulin promoter-eGFP reporter, imaging; reporter expression induced with tamoxifen; inhibition, % at 2 µM; hit rate 0.9% among 130,000; AID 1273;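 active = inhibition above the mean plus 3 SD, with well images judged a real hit on visual review, cut at about 60% in these data, passing the limit was not always enough; inconclusive = inhibition over the cutoff but images rejected on review; inactive = inhibition not above the cutoff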
# RGS16-Gao HTS: regulators of human RGS16-Galphao interaction. bead-based flow cytometry RGS16-Galphao binding, fluorescence; actives lie on both sides. O15492+P09471. binding response (% of control), % at 10 µM. hit rate 0.38% among 220,000. AID 1441;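 active = below 25% or above 175%, edge rows of some plates excepted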;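 also: Galphao activated by GDP with aluminum fluoride before binding; 100% = wells without compound and 0% = beads without RGS; some results beyond the cut were filed as inactive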
# Target sequence (O15492 whole entry, looked up): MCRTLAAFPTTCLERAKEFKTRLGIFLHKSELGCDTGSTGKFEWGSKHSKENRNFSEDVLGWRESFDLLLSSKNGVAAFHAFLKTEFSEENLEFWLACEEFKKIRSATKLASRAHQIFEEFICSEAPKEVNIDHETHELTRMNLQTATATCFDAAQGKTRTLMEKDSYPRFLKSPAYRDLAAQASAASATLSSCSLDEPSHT
# Target sequence (P09471 whole entry, looked up): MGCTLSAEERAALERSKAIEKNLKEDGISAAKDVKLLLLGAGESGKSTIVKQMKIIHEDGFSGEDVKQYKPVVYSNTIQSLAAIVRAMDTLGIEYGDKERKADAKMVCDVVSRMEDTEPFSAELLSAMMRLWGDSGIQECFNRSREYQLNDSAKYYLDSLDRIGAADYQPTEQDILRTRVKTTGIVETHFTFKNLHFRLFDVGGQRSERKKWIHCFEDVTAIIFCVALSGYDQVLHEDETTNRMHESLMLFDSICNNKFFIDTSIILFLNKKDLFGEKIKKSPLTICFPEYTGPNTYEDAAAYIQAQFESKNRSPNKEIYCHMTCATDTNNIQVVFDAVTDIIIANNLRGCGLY
# PKD1 kinase inh: inhibitors of human PKD1 kinase | hit rate 0.056% among 200,000 | PKD1 kinase fluorescence polarization assay | Q15139 | AID 797 | inhibition, %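 (about 10 µM by stock and volumes)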;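 active = inhibition of 50% or more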;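 also: controls were vehicle for no effect and a reference inhibitor for full effect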
# Insulin prom inh cell count: recorded beside Insulin prom inh, whose call it bears; normalized cell count, %; measured here: cell count, toxicity; reference of the scale not given here;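 cells exposed to compound for 48 h; stained nuclei by imaging scaled within each plate; lower means fewer cells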
# HSV replic up primary fold: also measured in HSV replic up; calls as there; fold increase; compound at 10 µM; measured here: primary screen fold increase 10 uM; tested in PC3 cells;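 GFP signal in the first replicate; 1 = infected wells without compound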
# * = called active by the depositor; i = inactive; ? = inconclusive; nt = no result given. Rows were taken by chance; overall some 1.2% were active at least once.
# Screens in order: GALR2 agonist	HSV replic up	HSV replic up primary fold	Insulin prom inh	Insulin prom inh cell count	RGS16-Gao HTS	PKD1 kinase inh
> Cc1cccc(OCC(=O)NC(=S)Nc2ccc(S(=O)(=O)NC3CCCCC3)cc2)c1
    -2.0	i	0.9	-29	167	92	1
> CCN(c1ccc(NC(=O)COC(=O)c2ccc(C)s2)cc1)C(C)C
    nt	i	0.91	nt	nt	102	-4
> CCN(CC)C(=S)NC(=O)C12CC3CC(CC(C3)C1)C2
    nt	i	0.95	nt	nt	111	-1
> Cc1cnc(C(=O)OCC(=O)Nc2ccc(C)c(S(=O)(=O)N(C)C)c2)cn1
    nt	i	1	nt	nt	99	nt
> O=C(NCc1ccc2c(c1)OCO2)c1ccc(CSCc2ccccc2Cl)o1
    -0.7	i	0.96	-30	83	9	9
> CC(=O)Nc1ccc(N2C(=O)CC(N3CC(C)OC(C)C3)C2=O)cc1 (stereo unspecified)
    -1.7	i	0.92	-21	96	95	2
> CCC(C)[C@H]1CNC(=S)N1CCc1cc(C(F)(F)F)cc(C(F)(F)F)c1 (stereo partly specified)
    nt	i	1.1	nt	nt	101	5
> Cc1csc(NC(=O)CSc2nnc(-c3ccco3)n2C)n1
    -0.1	i	0.89	-20	70	102	-2
> COc1ccc(-c2[nH]ncc2/C=C(/C#N)C(=O)NC2CCCCC2)cc1
    -1.0	i	1	15	116	118	2
> Cc1c(Cl)cccc1N/C(=N/S(=O)(=O)c1cccs1)c1ccccc1
    nt	i	0.97	nt	nt	103	-5
> CC(=O)N1Cc2ccccc2C(C)CC12CCCCC2 (stereo unspecified)
    0.0	i	1.1	-86	124	97	2
> O=C(Nc1ccc(Br)cc1)C1CCC(=O)N1Cc1ccccc1Cl (stereo unspecified)
    -1.7	i	0.96	-58	93	100	-3
> CCOC(=O)CNC(=S)N1CCn2c(nc3ccccc32)C1
    nt	i	0.79	-21	119	100	-7
> CCN(CC)S(=O)(=O)c1ccc2c(c1)nc(CCC(=O)OCC(=O)Nc1c(F)cccc1F)n2C
    -0.8	i	1.1	15	112	36	-6
> Cc1ccnc(NC(=O)CCC2CCCCC2)c1
    0.7	i	0.84	-24	133	98	3
> CC12C=CC3(CN(Cc4ccccc4)C(=O)C3C1C(=O)NCc1ccco1)O2 (stereo unspecified)
    -1.4	i	0.97	nt	nt	97	-1
> O=C(O)COC(=O)C1C(c2ccccc2)C(C(=O)O)C1c1ccccc1 (stereo unspecified)
    nt	i	0.97	nt	nt	102	-3
> Cc1ccc(S(=O)(=O)NC2=NCN(CCOC(=O)c3ccccc3)CN2)cc1
    -0.4	i	1.3	16	59	99	-9
> O=c1c2cn[nH]c2[nH]c(=S)n1-c1ccccc1
    -1.7	i	0.62	-5	70	105	2
> COc1ccc(-c2nc(SC)n(C(=O)c3ccco3)n2)cc1
    -1.1	i	0.93	nt	nt	103	4
> NC(=O)[C@@H]1[C@@H]2C(=O)N(c3ccc(F)cc3)C(=O)[C@@H]2[C@H]2C=Cc3ccccc3N21
    nt	i	1.2	nt	nt	98	nt
> O=C(c1cccc(Cl)c1)C1CCCN(Cc2ccc(N3CCNC3=O)cc2)C1 (stereo unspecified)
    nt	i	0.9	nt	nt	110	-6
> C#CCOCCOCCOCCNc1nc(N2CCN(C(=O)[C@H]([C@@H](C)CC)n3cc([C@@H](N)Cc4ccc(O)cc4)nn3)CC2)nc(N2CCN(C(=O)[C@H](Cc3cc4ccccc4[nH]3)n3cc([C@@H](N)C(C)CC)nn3)CC2)n1 (stereo partly specified)
    nt	nt	nt	nt	nt	102	6
> Cc1cccc(OCc2nnc(SCC(=O)N3CCc4ccccc43)n2C)c1
    -0.5	i	0.89	-79	88	98	-22
> CN(Cc1ccco1)C(=O)C(Cc1ccccc1)NS(=O)(=O)c1ccc2c(c1)CCC(=O)N2 (stereo unspecified)
    -3.1	i	1	nt	nt	98	7
> CCOC(=O)c1sc(NC(=O)CSc2ncccn2)c(C#N)c1C
    -2.8	i	0.8	-44	83	137	-1
> CCSc1nnc(NC(=O)CSc2nnc(Cc3cccn3C)n2CCc2ccccc2)s1
    1.8	i	1.1	9	34	105	-11
> CCCCOc1ccc(CNC(=S)N/N=C/c2ccc(OC)c(OC)c2)cc1
    0.9	i	0.81	-18	106	97	-6
> CCc1cc(C(=O)OC)c(NC(=O)CC2NCCNC2=O)s1 (stereo unspecified)
    -2.7	i	1.1	53	126	97	-16
> CCOc1ccc(-n2c(SC)nc3c(c2=O)SCC3)cc1
    -1.8	i	0.87	23	90	106	-6

# At a glance, 2 of the compounds above.
# Screens in order: GALR2 agonist	HSV replic up	HSV replic up primary fold	Insulin prom inh	Insulin prom inh cell count	RGS16-Gao HTS	PKD1 kinase inh
> CCc1cc(C(=O)OC)c(NC(=O)CC2NCCNC2=O)s1 (stereo unspecified)
    -2.7	i	1.1	53	126	97	-16
> CCOc1ccc(-n2c(SC)nc3c(c2=O)SCC3)cc1
    -1.8	i	0.87	23	90	106	-6

# (list continues)
# Screens in order: GALR2 agonist	HSV replic up	HSV replic up primary fold	Insulin prom inh	Insulin prom inh cell count	RGS16-Gao HTS	PKD1 kinase inh
> CC(C)OC(=O)CC(=O)c1sc2nc3c(cc2c1N)CN(C)CC3
    -1.1	?	nt	25	93	43	6
> O=C1c2ccccc2C(=O)c2c1cccc2N1CCN(CCO)CC1
    -2.0	i	0.86	4	122	104	22
> CC1=C(C(=O)N2CCCC(CCC(=O)NCc3ccc(F)c(F)c3)C2)OCCO1 (stereo unspecified)
    nt	i	1	nt	nt	80	-4
> O=C1C(=O)N(CNc2cccnc2)c2ccccc21
    -0.7	i	0.91	nt	nt	112	1
> COc1cc(C2c3c(-c4ccccc4)n[nH]c3C(=O)N2c2ccc(C(=O)O)cc2)ccc1O (stereo unspecified)
    -1.9	i	0.85	nt	nt	102	-6
> CNc1ccc(Br)cc(C(=O)/C=C/c2ccc(Cl)cc2Cl)c1=O
    nt	i	1	nt	nt	101	-4
> Cc1noc(C)c1COC(=O)c1ccc2c(c1)OCCO2
    -2.6	i	0.69	23	94	84	-9
> CCCNC(=O)c1nc(C)n(-c2cc(Cl)cc(Cl)c2)n1
    nt	i	0.85	nt	nt	102	-5
> O=C(Nc1ccc(C(F)(F)F)cc1)c1cc(S(=O)(=O)NCC2COc3ccccc3O2)ccc1F (stereo unspecified)
    -0.3	i	0.66	7	110	105	2
> CCCN(CCC)C(=O)CSc1nc2n[nH]c(C)c2c(=N)n1-c1ccc(OC)cc1
    1.0	nt	nt	nt	nt	107	1
> CCOc1ccc2[nH]c3c(=O)n(CCC4=CCCCC4)cnc3c2c1
    nt	i	1.2	nt	nt	102	nt
> COc1ccccc1NC(=O)COC(=O)c1cnccn1
    -2.4	i	1.1	36	125	95	-7
> CCOC(=O)c1cnc2ccccc2c1Nc1ccc(C(=O)O)cc1
    nt	i	0.89	nt	nt	91	-3
> COc1cccc(NC(=S)NC2CC3CCCC(C2)N3C2CCCC2)c1 (stereo unspecified)
    nt	i	0.86	nt	nt	102	-11
> CCN(CC)CCNC(=O)c1ccccc1C(=O)c1ncc[nH]1
    -2.7	i	1.1	-55	98	112	-3
> Cc1ccc(C(C)C)c(OCc2ccc(C(=O)N/N=C/c3cccc(O)c3O)cc2)c1
    -1.1	i	0.65	-21	41	75	-5
> Cc1cc(S(=O)(=O)Nc2ccccc2C(=O)O)ccc1Cl
    0.5	i	0.92	-100	111	102	-11
> O=C(N/N=C/C(Cl)=C/c1ccccc1)c1ccncc1
    nt	i	0.77	nt	nt	86	-7
> NC(=O)C1CCN(C(c2ccccc2F)c2nnnn2Cc2ccco2)CC1 (stereo unspecified)
    -3.0	i	1.1	-20	39	92	-2
> Cc1ccc(NC(=S)NNS(=O)(=O)c2ccc3ccccc3c2)cc1Cl
    nt	i	1.1	nt	nt	92	6
> O=C(Cc1ccccc1)NNC(=S)Nc1ccccc1
    nt	i	0.98	nt	nt	100	-10
> O=C(O)[C@H](Cc1ccccc1)N1Cc2ccccc2C1=O
    -1.0	nt	nt	nt	nt	103	-22
> N#CCCn1cc(C(=O)Nc2ccc(C(=O)O)cc2)c(-c2cc3ccccc3o2)n1
    nt	i	0.95	nt	nt	103	2
> CC(C)c1ccc(O)c(NC(=O)c2cncc(Br)c2)c1
    -1.1	i	1.1	-100	80	104	6
> O=C(CCSc1nnc(-c2ccncc2)o1)Nc1ccccc1Cl
    -1.1	i	1	31	108	101	-8
> CN1C(C(=O)NCc2cccc(C(F)(F)F)c2)CC2Cn3c(nc4cc(Cl)c(Cl)cc43)C21 (stereo unspecified)
    nt	i	0.89	nt	nt	104	nt
> CCOC(=O)c1c(C)c(C(=O)NCc2ccc(OC)cc2)c(C)n1C
    nt	i	0.96	0	161	109	-2
> Cc1cccc(-n2nc(C)c3c2NC2=C(C(=O)CCC2)C3c2ccccn2)c1 (stereo unspecified)
    nt	i	0.97	nt	nt	104	-9
> CCOC(=O)C1=C(C)C/C(=N\NC(=O)c2ccccc2O)CC1
    nt	i	1	nt	nt	106	nt
> COc1ccc(CN(C)Cc2ccccc2)c(OC)c1OC
    -1.0	i	0.9	17	108	95	-15

# (continued)
# Screens in order: GALR2 agonist	HSV replic up	HSV replic up primary fold	Insulin prom inh	Insulin prom inh cell count	RGS16-Gao HTS	PKD1 kinase inh
> COc1ccc(/C(=N/O)C(C)(C)NO)cc1
    -1.3	i	0.95	-18	116	105	-1
> Nc1cccnc1Sc1cccc(Cl)c1
    -0.7	i	1.1	nt	nt	105	8
> CCCC(C)c1nnc(NC(=O)CN2C(=O)c3ccccc3C2=O)s1 (stereo unspecified)
    nt	i	0.91	nt	nt	97	8
> CCOC(=O)c1sc(NC(=O)c2cc3ccccc3o2)nc1C
    nt	i	0.95	50	77	100	2
> COC(=O)Cn1nc(-c2ccccc2)c2ccccc21
    -0.4	i	1.2	nt	nt	101	5
> Cc1ccc(CNC(=O)C2=CCN(S(=O)(=O)c3ccc(C)cc3)CC2)cc1
    1.1	nt	nt	12	104	96	0
> CC1CCC(C(C)C)C(OC(=O)COC(=O)c2cc(O)ccc2N)C1 (stereo unspecified)
    3.6	i	0.93	36	126	92	2
> COc1cc(/C=C/c2ccc3cccc([N+](=O)[O-])c3n2)ccc1OCC(=O)O
    nt	i	0.94	nt	nt	100	0
> C/C=C/C=C/C(=O)OC(C)C(=O)Nc1cc([N+](=O)[O-])ccc1OC (stereo unspecified)
    nt	i	0.88	nt	nt	93	-2
> CS(=O)(=O)N(CC(=O)N1CCCCCC1)c1ccc2c(c1)OCCO2
    -0.8	i	1.1	-8	168	103	2
> Cc1ccc(NS(=O)(=O)c2ccc3c(c2)oc(=O)n3C)cc1F
    -5.3	i	0.92	nt	nt	104	10
> CC(C)(C)c1nnc(NS(C)(=O)=O)s1
    -2.0	i	0.78	-31	71	nt	4
> O=C1COCC(=O)N1CCc1c[nH]c2ccccc12
    nt	i	0.88	nt	nt	107	nt
> COc1ccc(C(=O)NCCC(C)C)cc1S(=O)(=O)N1CCOCC1
    -1.2	i	0.97	-58	29	101	-10
> Cc1oc(-c2cccs2)[n+]([O-])c1C
    -0.5	i	1	nt	nt	107	-8
> COc1cccc(-c2csc(N3CCN(C(=S)Nc4ccccc4Cl)CC3)n2)c1
    -3.0	i	0.9	nt	nt	96	0
> O=C(CCc1ccccc1)n1nc(-c2ccco2)nc1SCc1ccccc1
    -2.4	nt	nt	nt	nt	106	5
> Cc1cc(/C=C2/SC(=O)N(CC(=O)N3CCCC3)C2=O)ccc1N1CCOCC1
    nt	i	1.1	nt	nt	103	-7
> NC(=O)COC(=O)c1sc2ccccc2c1Cl
    nt	i	0.97	nt	nt	97	-2
> CCOC(=O)C1CCCN(C(=O)c2ccc3c(c2)N(Cc2ccccc2)C(=O)c2ccccc2S3=O)C1 (stereo unspecified)
    nt	i	1.1	-47	73	94	-5
> Cc1ccc(NC(=S)NNC(=S)Nc2cccc(C(F)(F)F)c2)cc1
    nt	i	0.87	nt	nt	87	nt

# Complete entries from above. Values in the order: GALR2 agonist	HSV replic up	HSV replic up primary fold	Insulin prom inh	Insulin prom inh cell count	RGS16-Gao HTS	PKD1 kinase inh
# Listed for O=C(Cc1ccccc1)NNC(=S)Nc1ccccc1 = nt	i	0.98	nt	nt	100	-10
# Listed for O=C(N/N=C/C(Cl)=C/c1ccccc1)c1ccncc1 = nt	i	0.77	nt	nt	86	-7
# Listed for NC(=O)[C@@H]1[C@@H]2C(=O)N(c3ccc(F)cc3)C(=O)[C@@H]2[C@H]2C=Cc3ccccc3N21 = nt	i	1.2	nt	nt	98	nt
# Listed for CCc1cc(C(=O)OC)c(NC(=O)CC2NCCNC2=O)s1 (stereo unspecified) = -2.7	i	1.1	53	126	97	-16

# Screening data as filed in PubChem.
